# Mtb betalactam: beta-lactam sensitization of Mtb H37Rv; inhibition, % at 25 µM; AID 434955; M. tuberculosis H37Rv growth with meropenem, percent inhibition; hits of this screen are not shown here; 330,000 tested, 0.27% active;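 active = about 74% or more and at least 40 points above the plate without the antibiotic, then above 30% in a dose series; inconclusive = first-round hits that could not be retested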;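 also: growth measured after seven days incubation then overnight dye step; 0% = bacteria only wells and 100% = bacteria with antibiotic; twin plates without the antibiotic show which effects depend on it; some results filed as inactive read as strong as hits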
# RecA splice inh: blocks M. tuberculosis RecA intein splicing | cell-free RecA intein splicing, fluorescence | 290,000 tested, 0.75% active | AID 2221 | inhibition, %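 (about 9 µM by stock and volumes)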; in the data active = inhibition above about 30%; inconclusive = no clear call, values can overlap the other calls;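 also: 0% = vehicle wells and 100% = reference inhibitor control wells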
# Target sequence (P9WHJ3 whole entry, looked up, canonical isoform): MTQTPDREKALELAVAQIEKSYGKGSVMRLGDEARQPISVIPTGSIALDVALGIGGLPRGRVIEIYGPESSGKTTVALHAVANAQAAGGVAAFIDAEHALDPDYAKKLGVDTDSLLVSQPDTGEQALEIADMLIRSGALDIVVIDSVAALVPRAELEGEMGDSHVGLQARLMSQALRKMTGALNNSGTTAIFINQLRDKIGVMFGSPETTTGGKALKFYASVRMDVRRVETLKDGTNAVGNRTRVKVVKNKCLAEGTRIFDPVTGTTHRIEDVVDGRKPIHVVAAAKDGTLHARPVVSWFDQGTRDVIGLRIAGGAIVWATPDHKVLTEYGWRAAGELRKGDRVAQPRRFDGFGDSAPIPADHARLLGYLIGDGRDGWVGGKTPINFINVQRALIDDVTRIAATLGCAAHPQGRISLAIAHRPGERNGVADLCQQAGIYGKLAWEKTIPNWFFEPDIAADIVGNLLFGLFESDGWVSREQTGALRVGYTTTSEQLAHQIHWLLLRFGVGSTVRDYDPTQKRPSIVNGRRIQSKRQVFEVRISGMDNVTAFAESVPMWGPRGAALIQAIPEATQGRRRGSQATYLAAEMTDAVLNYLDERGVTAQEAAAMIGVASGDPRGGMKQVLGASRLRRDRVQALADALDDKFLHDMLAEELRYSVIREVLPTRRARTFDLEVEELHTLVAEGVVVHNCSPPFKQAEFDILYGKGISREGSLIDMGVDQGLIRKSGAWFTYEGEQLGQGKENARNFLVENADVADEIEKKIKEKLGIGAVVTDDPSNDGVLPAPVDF
# Arbovirus anti: blocks arbovirus infection. arbovirus infection cell-based antiviral screen. inhibition, % at 10 µM. 200,000 tested, 0.37% active;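 active = inhibition from about 30%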;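 also: bluetongue infection of BSR cells; cell survival read as ATP light after 72 h; 0% = infected wells without compound and 100% = uninfected wells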
# YopH PTP inh: YopH (Yersinia) phosphatase inhibition | fluorescence Ex485/Em525 | inhibition, %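 (about 10 µM by stock and volumes)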 | 140,000 tested, 0.16% active | AID 898;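 active = inhibition of 50% or more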;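 also: controls were vehicle for no effect and minimum signal wells for full effect; inactives centre near -20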
# Mtb H37Rv: M. tuberculosis H37Rv growth inhibitors, H37Rv strain (AID 1626); M. tuberculosis H37Rv growth inhibition; higher % means a stronger effect; inhibition, % at 10 µM, or IC50 in µM where a hit was titrated; 220,000 tested, 0.95% active;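 active = confirmed in a dose series; inconclusive = inhibition above 80% but not taken into the dose series; inactive = below 80% or under 30% at every dose of the series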;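 also: bacteria incubated seven days before Alamar blue readout; 0% = bacteria only wells and 100% = bacteria with antibiotic wells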
# Arbovirus anti repeat: further read-out of Arbovirus anti, marked with its call; inhibition, %; measured here: 10K subset replicate screen; many hits read low in the repeat;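 first of two repeat runs on a subset; 0% = infected and 100% = uninfected wells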
# Active calls of the source: *; ? = inconclusive; . = not tested or not shown; & = joins results of further samples.
SMILES,Mtb betalactam,RecA splice inh,Arbovirus anti,YopH PTP inh,Mtb H37Rv,others
COC(=O)C1=C(Nc2ccc(OC)cc2)C=C(C)C(C(=O)OC)C1c1ccc(C)cc1 (stereo not given),60,4.8,15,8,85%,
COc1ccccc1C(=O)NCCNc1ccc([N+](=O)[O-])cc1Cl,1,-0.9,.,.,.,
CCOc1cc(NC(=S)NCCCN2CCOCC2)c(OCC)cc1NC(=O)c1ccco1,5,-3.4,.,.,.,
C=C(C)C(=O)Nc1cccc(C2=NOC3(C2)C[C@H](C(N)=O)N(C(=O)/C=C/C)C3)c1 (stereo not given in full),-8,-4.1,.,.,-6%,
CN(CCc1ccccn1)C(=O)CCC1CCCN(C(=O)c2ccsc2)C1 (stereo not given),-4,-0.2,4,.,-3%,
CCOC(=O)N1CCN(c2c(N3CCN(c4ccccc4F)CC3)c(=O)c2=O)CC1,1,0.9,.,.,-8%,
C=CCn1c(SCCCC)nc(O)cc1=O,6&-2,3.7&9.6,-2,-52,6%&10%,Arbovirus anti repeat=7
Nc1nnc(Sc2ccc(Cl)cc2[N+](=O)[O-])s1,0,0.5,8,-20,7%,
Cc1ccc2oc(=O)cc(CN3CCCCC3)c2c1,4,-1.1,.,.,.,
Cc1ccccc1Cn1nc(C)c(NC(=O)c2ccccc2)c1C,6,-0.7,1,.,1%,
O=C(Nc1cccn(Cc2c(Cl)cccc2Cl)c1=O)c1ccccc1Cl,-3,4.7,-4,-26,4%,
CN(CC(=O)Nc1cccc(F)c1)C(=O)c1ccc(N2CCCCCC2)c([N+](=O)[O-])c1,-5,1.4,.,.,.,
COc1ccc(-c2nsc3c(N4CCCCC4)ncnc23)cc1,7,0.2,0,-101,0%,
CCOc1cccc(N2C(=O)CC(N3CCN(c4nc5ccccc5s4)CC3)C2=O)c1 (stereo not given),4,-1.5,3,-5,0%,
CCc1ccc(OCC(=O)N(C)C)c(Br)c1,-6,0.1,-1,-1,-4%,
COc1cc(O)c(C(CC(=O)N2CCCCC2)c2ccc(N(C)C)cc2)c(OC)c1 (stereo not given),.,-2.9,.,.,-7%,
CC(C)NC(=O)NC(=O)COC(=O)c1ccccc1O,-10,1.5,5,.,-2%,
O=C(c1ccc2c(c1)OCO2)N(c1ccc(Cl)cc1)C1C=CS(=O)(=O)C1 (stereo not given),5,-3.5,2,-12,-5%,
Cc1nc(N)[nH]c(=O)c1CC(=O)OCCCl,-2,-1.0,.,.,-6%,
COc1ccc(CCNC(=O)CCNS(=O)(=O)c2cc(Br)cnc2N)cc1OC,-6,-0.8,.,.,.,
Cc1nn(-c2ccc(F)cc2)c(C)c1NS(=O)(=O)c1ccc(Cl)cc1,0,11,-5,-16,5%,
CC(C)c1ncc(C(O)c2ccccc2)n1C (stereo not given),-4,.,.,.,-4%,
O=C(CN1C(=O)C2C3C=CC(C4CC34)C2C1=O)OCC(=O)c1ccccc1 (stereo not given),3,-1.6,2,-16,-4%,
Cc1ccccc1C(=O)Oc1ccccc1N1C(=O)C2CC=CCC2C1=O (stereo not given),86,-2.4,-1,-23,-3%,
Cc1c(C(c2ccc(F)cc2)c2c(C)n(C)n(-c3ccccc3)c2=O)c(=O)n(-c2ccccc2)n1C,2,1.1,.,.,.,

# Reprinted at random: 2 records from the list
SMILES,Mtb betalactam,RecA splice inh,Arbovirus anti,YopH PTP inh,Mtb H37Rv,others
O=C(Nc1cccn(Cc2c(Cl)cccc2Cl)c1=O)c1ccccc1Cl,-3,4.7,-4,-26,4%,
C=C(C)C(=O)Nc1cccc(C2=NOC3(C2)C[C@H](C(N)=O)N(C(=O)/C=C/C)C3)c1 (stereo not given in full),-8,-4.1,.,.,-6%,

# Other entries follow.
SMILES,Mtb betalactam,RecA splice inh,Arbovirus anti,YopH PTP inh,Mtb H37Rv,others
O=C(Cn1cccc1)N1CCN(c2ccc(F)cc2)CC1,-3,-1.6,-4,-55,51%,
Cc1nn(-c2ccccc2)c2c1C1(C(=O)N(C(C)C)c3ccccc31)C(C#N)=C(N)O2 (stereo not given),60,81*,-20,-20,5%,
CC1(C(=O)Nc2nc3ccc(S(C)(=O)=O)cc3s2)CC1(Cl)Cl (stereo not given),11,-2.6,.,.,.,
CCn1c(CNc2ccc(C(=O)O)cc2)nc2ccccc21,6,1.8,8,-6,-2%,
c1ccc(-c2nc(-c3ccccn3)nc(-c3ccccn3)n2)nc1,1,-2.2,.,.,.,
COC(=O)/C=c1/s/c(=C(\C#N)C(=O)NCc2ccco2)n(-c2ccccc2)c1=O,2,2.0,-2,-34,3%,
COc1ccc(CCNC(=O)CNS(=O)(=O)c2ccc(N(C)C)c([N+](=O)[O-])c2)cc1OC,5,-5.2,.,.,.,
CCOc1cc(-c2nc3c(C)cccn3c2NCC2CCCO2)ccc1O (stereo not given),-4,-66,4,-31,-1%,
COc1ccc2ccccc2c1CN1CCN(Cc2ccccc2)CC1,-2,0.4,23,-9,-4%,
CC(=O)Nc1ccccc1C(=O)N1CCN(Cc2ccc3c(c2)OCO3)CC1,0,0.9,.,.,.,
CN1CCN(S(=O)(=O)c2ccc(NC(=O)c3csc4ccccc34)cc2)CC1,-5,-1.4,-3,-15,9%,
NC(=O)c1c(NC(=O)CSc2nnc(-c3ccco3)n2-c2ccccc2)sc2c1CCC2,-5,.,-18,-6,1%,
CCc1noc(C)c1C(=O)Nc1cc(S(=O)(=O)N(CC)CC)ccc1N1CCOCC1,-8,-0.5,.,.,.,
Cc1ccc(Nc2ccc(C(=O)O)cc2N)cc1,19,3.7,-2,-43,-8%,
O=C(CN1C(=O)NC2(CCCCC2)C1=O)Nc1nc2c(F)cc(F)cc2s1,-5,-1.6,.,.,.,
CC(C)OC(=O)c1c2c(n3ccccc13)C(=O)c1ccccc1C2=O,98,17,-25,-26,?,
CCN(CC)C(=O)c1sc(NC(=O)Cc2ccc(OC)cc2)c(C#N)c1C,-18,-3.2,5,7,2%,
Cc1ccc(-c2nnc(Nc3ccccc3)o2)cc1,-4,2.0,-5,-39,-7%,
O=C(CN1C(=O)c2ccccc2S1(=O)=O)NC1CC2CCC1C2 (stereo not given),-1,2.7,10,-37,-9%,Arbovirus anti repeat=0
COc1ccc(S(=O)(=O)Nc2ccc3c(c2)COC3=O)cc1OC,3,-1.4,6,-51,-14%,
CN(C)C(=S)NCc1ccccc1,4,1.8,3,-15,10%,
O=C1NC(=O)N(c2ccc(F)cc2)C(=O)/C1=C/c1ccsc1,-1,1.7,-2,.,5%,
O=C(Nc1ccncc1)Nc1ccc(F)cc1,-8,0.7,.,.,.,
CC(=O)N1CCc2cc(S(=O)(=O)NCCCN3CCN(Cc4ccccc4)CC3)ccc21,0,1.0,12,-6,.,
CCOc1ccc(NC(=O)C(=O)NCC2CCCN2CC)cc1 (stereo not given),10,1.0,1,-15,56%,
SMILES,Mtb betalactam,RecA splice inh,Arbovirus anti,YopH PTP inh,Mtb H37Rv,others
N=C1/C(=C\c2ccc(OCc3ccccc3)cc2)C(=O)N=C2SC(N3CCCC3)=NN12,.,.,10,.,11%,
Cn1c(Cn2cnc([N+](=O)[O-])n2)nnc1SCC(=O)Nc1ccc(Br)cc1,3,0.7,15,.,1%,
COC(=O)c1c(Cl)c2n3ccccc3c(C)c(-c3ccccc3)c-2c1C(=O)OC,-1,-2.3,6,6,8%,
C=CCn1c(O)c(C(C)=Nc2ccc3c(c2)CCC3)c(=O)[nH]c1=O,93,-0.4,.,.,55%,
O=C(CN(Cc1cccs1)C(=O)c1csnn1)NC1CCCC1,-5,-3.3,5,-32,-7%,
CCNc1nc(Oc2ccc(F)cc2)cc(C(F)(F)F)n1,-6,1.8,-4,.,3%,
CCOC(=O)CNC(=O)c1cnc(Nc2ccccc2OC)c2ccccc12,4,-32,.,.,.,
COc1cccc(N(C(=O)c2snc(C(N)=O)c2N)C(C(=O)NCC2CCCO2)c2c[nH]c3ccccc23)c1 (stereo not given),-3,0.0,.,.,.,
CCCCNC(=O)c1ccccc1Cl,4,-1.1,-3,5,-2%,
CC(=O)c1sc2nc(C)cc(C)c2c1N,13,-89,-4,-1,-1%,
COc1ccc(C(C(=O)NC2CCCC2)N(C(=O)Cc2cccs2)C2CC2)cc1OC (stereo not given),-2,0.4,.,.,.,
CCCc1nc2ccc(NC(=O)c3ccco3)cc2c(=O)n1Cc1ccccc1Cl,8,-2.3,-4,-22,-9%,
COc1c2ccoc2nc2c(OC)c(OCC(O)C(C)(C)O)ccc12 (stereo not given),-4,.,3,-14,-7%,
Cc1ccc(OCC(=O)c2cc(C)n(Cc3cccs3)c2C)c([N+](=O)[O-])n1,-4,-0.6,5,.,4%,
Cc1cc(N2CC(C(=O)NCc3cccs3)CC2=O)ccc1C(C)C (stereo not given),2,-1.0,-16,-17,-4%,
COc1cccc(CNC(=O)c2ccc(CS(=O)(=O)Cc3ccccc3C)o2)c1,-4,-0.9,.,.,.,
CC(=O)N(Cc1ccccc1)Cc1cn(CCC#N)nc1-c1cccc([N+](=O)[O-])c1,-6,-1.6,-5,.,7%,
CC(C(=O)Nc1ccc(OCc2ccccc2)cc1)N1CCCC1 (stereo not given),-4,-6.3,-21,.,6%,
COc1ccc(-c2cc(C(F)(F)F)n3nc(C(=O)N4CCN(C(=O)c5ccco5)CC4)cc3n2)cc1,0,-24,.,.,.,
Cc1ccccc1N1CCN(c2ccc(NC(=O)C3CCCCC3C(=O)O)cc2)CC1 (stereo not given),-8,0.7,-11,-21,7%,
COc1ccc(C2/C(=C(/O)c3ccccc3)C(=O)C(=O)N2C)c(OC)c1 (stereo not given),1,1.5,.,.,.,
C=C[C@]1(C)C=C2CCC3[C@](C)(CCC[C@@]3(C)C(=O)O)C2CC1 (stereo not given in full),-1,13,.,.,.,
CCn1c(=O)c([N+](=O)[O-])c(NC2CCS(=O)(=O)C2)c2ccccc21 (stereo not given),4,-2.0,.,.,-8%,
CCn1c(=O)c([N+](=O)[O-])c(NCc2ccco2)c2ccccc21,4,.,.,.,-2%,

# Arranged by molar mass (falling): part of the list above.
SMILES,Mtb betalactam,RecA splice inh,Arbovirus anti,YopH PTP inh,Mtb H37Rv,others
COc1cccc(N(C(=O)c2snc(C(N)=O)c2N)C(C(=O)NCC2CCCO2)c2c[nH]c3ccccc23)c1 (stereo not given),-3,0.0,.,.,.,
COc1ccc(-c2cc(C(F)(F)F)n3nc(C(=O)N4CCN(C(=O)c5ccco5)CC4)cc3n2)cc1,0,-24,.,.,.,
CC(=O)N1CCc2cc(S(=O)(=O)NCCCN3CCN(Cc4ccccc4)CC3)ccc21,0,1.0,12,-6,.,
COc1ccc(C(C(=O)NC2CCCC2)N(C(=O)Cc2cccs2)C2CC2)cc1OC (stereo not given),-2,0.4,.,.,.,
N=C1/C(=C\c2ccc(OCc3ccccc3)cc2)C(=O)N=C2SC(N3CCCC3)=NN12,.,.,10,.,11%,
Cc1ccccc1N1CCN(c2ccc(NC(=O)C3CCCCC3C(=O)O)cc2)CC1 (stereo not given),-8,0.7,-11,-21,7%,
COc1cccc(CNC(=O)c2ccc(CS(=O)(=O)Cc3ccccc3C)o2)c1,-4,-0.9,.,.,.,
COC(=O)c1c(Cl)c2n3ccccc3c(C)c(-c3ccccc3)c-2c1C(=O)OC,-1,-2.3,6,6,8%,
Cc1ccc(OCC(=O)c2cc(C)n(Cc3cccs3)c2C)c([N+](=O)[O-])n1,-4,-0.6,5,.,4%,
CCOC(=O)CNC(=O)c1cnc(Nc2ccccc2OC)c2ccccc12,4,-32,.,.,.,
Cc1cc(N2CC(C(=O)NCc3cccs3)CC2=O)ccc1C(C)C (stereo not given),2,-1.0,-16,-17,-4%,
COc1ccc(C2/C(=C(/O)c3ccccc3)C(=O)C(=O)N2C)c(OC)c1 (stereo not given),1,1.5,.,.,.,
CCn1c(=O)c([N+](=O)[O-])c(NC2CCS(=O)(=O)C2)c2ccccc21 (stereo not given),4,-2.0,.,.,-8%,
O=C(CN(Cc1cccs1)C(=O)c1csnn1)NC1CCCC1,-5,-3.3,5,-32,-7%,
COc1c2ccoc2nc2c(OC)c(OCC(O)C(C)(C)O)ccc12 (stereo not given),-4,.,3,-14,-7%,
C=CCn1c(O)c(C(C)=Nc2ccc3c(c2)CCC3)c(=O)[nH]c1=O,93,-0.4,.,.,55%,
CC(C(=O)Nc1ccc(OCc2ccccc2)cc1)N1CCCC1 (stereo not given),-4,-6.3,-21,.,6%,
CCOc1ccc(NC(=O)C(=O)NCC2CCCN2CC)cc1 (stereo not given),10,1.0,1,-15,56%,
CCn1c(=O)c([N+](=O)[O-])c(NCc2ccco2)c2ccccc21,4,.,.,.,-2%,
C=C[C@]1(C)C=C2CCC3[C@](C)(CCC[C@@]3(C)C(=O)O)C2CC1 (stereo not given in full),-1,13,.,.,.,
CCNc1nc(Oc2ccc(F)cc2)cc(C(F)(F)F)n1,-6,1.8,-4,.,3%,
CC(=O)c1sc2nc(C)cc(C)c2c1N,13,-89,-4,-1,-1%,
CCCCNC(=O)c1ccccc1Cl,4,-1.1,-3,5,-2%,

# Not all compounds are listed; count on the stated rates, not on these rows.
